Source: PubChem BioAssay (several laboratories)
RN4220 kill: kills Staphylococcus aureus RN4220. inhibition, % (test concentration not listed). hit rate 0.33% among 330,000. S. aureus RN4220 growth, OD600, 16 h;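 active = z-score of -3 or lower and OD600 up to 0.18 on both plates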;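 note: plate controls were untreated cells for no effect and reference antibiotic for full effect; stock transfer was 100 nL into about 80 µL; one replicate is shown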
Autofluor counter: counter-screen for toxin protease inhibitors: compound fluorescence. hit rate 3.1% among 360,000. fluorescence intensity (test concentration not listed). compound autofluorescence counterscreen, microsphere flow cytometry; stronger effect = higher value;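 active = at least 3 SD above the mean of all compounds, about 16000 in these data; inconclusive = too few beads counted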;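 note: 100 nL of 1 mM stock went into each well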
PrP UTR inh: suppresses PrP 5' UTR mRNA reporter expression | hit rate 0.35% among 340,000 | inhibition, % (concentration not given with the values) | cell-based PrP 5' UTR mRNA reporter, plate reader;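 active = every replicate at 50% or more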;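 note: 0 = median of the neutral control wells; tested in H4 reporter cells; numbers are from one replicate; inactives centre near -14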
Mtb hypoxia rep: Mtb hypoxia fluorescent reporter inhibition; AID 1159583; M. tuberculosis hypoxia-regulated fluorescent reporter, fluorescence; fluorescence inhibition, % (no concentration beside the values); hit rate 0.1% among 300,000;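 active = 35 to 45% if threefold the growth effect, above 45% if 1.5-fold the growth effect; inactive = the rest, general growth blockers included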;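 note: wells of about 50 µL received 100 nL stock; 0% = vehicle wells and 100% = reference inhibitor wells; whole bacteria with a GFP reporter of the hypoxia response; strong numbers were not always called active; many hits fall short of the cut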
Sa ugtP lethal: growth inhibition of S. aureus ugtP deletion strain; AID 1259309; hit rate 0.54% among 330,000; S. aureus RN4220 ugtP deletion, OD600 growth, 16 h; some inactives read as strong as hits; growth inhibition, % (no concentration beside the values);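 active = z-score under -3 and OD600 up to 0.15 on both plates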;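 note: plate controls were untreated wells for no effect and antibiotic for full effect; wells of about 80 µL received 100 nL stock; the first replicate is given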
BJeLR viability: BJeLR cell viability loss | inhibition, % (no concentration beside the values) | BJeLR (HRASV12) viability, CellTiter-Glo ATP luminescence, 48 h; reference of the scale not given here | hit rate 0.17% among 300,000;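 active = replicate mean above 50%; inconclusive = above 50% but judged a plate artefact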;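 note: 50 nL library stock added to about 25 µL; numbers are from one replicate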
Mtb hypoxia rep growth: second read-out of Mtb hypoxia rep, no call of its own (marks repeat the call); growth inhibition, %; measured here: M. tuberculosis growth (absorbance);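 0% = vehicle and 100% = reference antibiotic; read after six days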
An asterisk follows results filed as active; ? = inconclusive; / = no result given.

SMILES | RN4220 kill | Autofluor counter | PrP UTR inh | Mtb hypoxia rep | Mtb hypoxia rep growth | Sa ugtP lethal | BJeLR viability
CN1C(=S)SC(/[N+]([O-])=C\c2ccco2)C1(C)C (stereo not drawn) | 4.2 | 4520 | -7 | / | / | 8 | 15
O=C(N/N=C/c1ccc(OC2CSC2)cc1)c1ccc(CN2CCOCC2)cc1 | / | 3625 | -7 | / | / | / | -10
COc1ccc(C2/C=C\CNCC(=O)N2Cc2ccc(F)cc2)cc1 (stereo not drawn) | / | 3975 | -26 | / | / | / | 6
CCC1(CC)C(=O)C2=C3C1[C@H](C(=O)OC)C=C(C(=O)OC)C[C@H]3n1c(=O)n(-c3ccccc3)c(=O)n1[C@H]2C (stereo partly drawn) | / | 3930 | -22 | / | / | / | 5
CCc1cccc(Nc2cc(C)nc3nc(C)nn23)c1 | 0.6 | 6063 | -13 | / | / | 5 | -2
c1ccc(Cn2ncc3ccccc32)cc1 | 1.9 | 9825 | -34 | 11 | -2 | 15 | -10
C/C(=N/NS(=O)(=O)c1cccc([N+](=O)[O-])c1)c1c[nH]c2ccccc12 | / | 5620 | -153 | / | / | / | 8
O=S(=O)(c1ccccc1)[C@@]1(c2ccc(Br)cc2)C[C@@H]2ON=C(c3ccccc3)[C@@H]2C1 | / | 3387 | -5 | / | / | / | 15
CC(=O)N(Cc1ccc(F)cc1)c1cccc(C)c1C | 7.0 | 2677 | -16 | 18 | 2 | -11 | -2
O=C(Nc1ccccc1N1CCCCC1)c1ncoc1-c1cccc(F)c1 | -6.1 | 3321 | -17 | 13 | -4 | 15 | 12
COc1cc(C(=O)OCc2cc3ccccc3[nH]c2=O)cc(OC)c1OC | 5.7 | 2580 | -13 | 7 | 2 | -3 | 0
O=C(CNC(=O)c1nc[nH]c1C(=O)NCc1ccccc1)OCc1ccccc1 | 5.2 | 4394 | -9 | 2 | 5 | -4 | 7
CN1C(=O)c2ccccc2C(C(=O)NCC2CCCO2)C1c1c[nH]c2ccccc12 (stereo not drawn) | 4.1 | 2758 | -40 | / | / | 2 | 15
CCC(=O)NNc1nc2c(Cl)cccc2s1 | 6.9 | 4239 | -12 | 0 | 3 | 16 | 3
Cc1noc(NC(=O)c2c(-c3c(Cl)cccc3Cl)noc2C)c1[N+](=O)[O-] | 25 | / | / | -4 | -3 | 4 | -9
CCCCc1nnc(NC(=O)C2CC(=O)N(Cc3ccccc3)C2)s1 (stereo not drawn) | 3.2 | 5698 | -27 | 13 | 0 | 8 | 2
CCCN(CCC)C(=O)CSc1nc2ccccc2c(=O)n1CC1COc2ccccc2O1 (stereo not drawn) | 1.4 | 6926 | 17 | -11 | -9 | 0 | -3
CCOC(=O)c1cc(-c2nnc(-c3cc(OC)c(OC)c(OC)c3)o2)c(C)nc1C | 4.7 | 3804 | -10 | / | / | -1 | /
COc1ccccc1Nc1ccc(C(=O)O)cc1[N+](=O)[O-] | 8.0 | 4555 | -17 | 12 | 1 | 8 | -8
Cc1ccc2[nH]c(=O)c(CNS(=O)(=O)c3ccccc3)c(-c3ccccc3)c2c1 | -3.1 | 2917 | -13 | -7 | 11 | -32 | 6

Already shown: an excerpt of the list.
SMILES | RN4220 kill | Autofluor counter | PrP UTR inh | Mtb hypoxia rep | Mtb hypoxia rep growth | Sa ugtP lethal | BJeLR viability
O=C(CNC(=O)c1nc[nH]c1C(=O)NCc1ccccc1)OCc1ccccc1 | 5.2 | 4394 | -9 | 2 | 5 | -4 | 7
CN1C(=O)c2ccccc2C(C(=O)NCC2CCCO2)C1c1c[nH]c2ccccc12 (stereo not drawn) | 4.1 | 2758 | -40 | / | / | 2 | 15
CCC(=O)NNc1nc2c(Cl)cccc2s1 | 6.9 | 4239 | -12 | 0 | 3 | 16 | 3

Returning to the listing, starting 4 compounds before the break.
SMILES | RN4220 kill | Autofluor counter | PrP UTR inh | Mtb hypoxia rep | Mtb hypoxia rep growth | Sa ugtP lethal | BJeLR viability
CCCN(CCC)C(=O)CSc1nc2ccccc2c(=O)n1CC1COc2ccccc2O1 (stereo not drawn) | 1.4 | 6926 | 17 | -11 | -9 | 0 | -3
CCOC(=O)c1cc(-c2nnc(-c3cc(OC)c(OC)c(OC)c3)o2)c(C)nc1C | 4.7 | 3804 | -10 | / | / | -1 | /
COc1ccccc1Nc1ccc(C(=O)O)cc1[N+](=O)[O-] | 8.0 | 4555 | -17 | 12 | 1 | 8 | -8
Cc1ccc2[nH]c(=O)c(CNS(=O)(=O)c3ccccc3)c(-c3ccccc3)c2c1 | -3.1 | 2917 | -13 | -7 | 11 | -32 | 6
CCOC(=O)C1(Cc2cccc(F)c2)CCN(CC2CC2)CC1 | -1.7 | 4875 | -13 | 2 | 11 | 6 | 4
CCN(CC)c1ccc(S(=O)(=O)N2CCOCC2)cc1NC(=O)CN1CCc2ccccc2C1 | 1.4 | 2662 | -3 | 2 | 5 | 2 | -1
COc1ccccc1N1CCN(C(=O)c2c(-c3ccccc3Cl)noc2C)CC1 | 0.9 | 3639 | -20 | / | / | 0 | -9
Cc1cc(C)c2cc(CN(CCO)C(=O)NC3CCCCC3)c(=O)[nH]c2c1 | 6.4 | 3539 | -19 | 12 | 8 | 8 | 1
C=C(C)C(=O)NNc1ccccc1 | 4.1 | 5128 | -16 | 8 | 7 | 4 | 4
O=c1[nH]c(=O)n(-c2ccc(F)cc2)c(O)c1C=Nc1ccccc1N1CCCC1 | 4.3 | 4930 | -5 | / | / | -4 | 5
CCCOc1ccc(N2C(=O)CC(N(CCc3ccc(OC)cc3)C(=O)c3ccccc3)C2=O)cc1 (stereo not drawn) | 3.9 | 3750 | -19 | 18 | 14 | 1 | -1
COc1ccccc1C(C)NC(=O)C1CCN(S(=O)(=O)c2cccs2)CC1 (stereo not drawn) | -0.7 | 4109 | -22 | 4 | 10 | 3 | /
COc1ccc(OC)c(C2=NS(=O)(=O)N(C)C(C(=O)NCc3cccs3)=C2)c1 | 2.5 | 5617 | -13 | 0 | 1 | 6 | -5
COc1ccc(OC)c(C(=O)c2ccc(C(=O)c3cc(OC)ccc3OC)cc2)c1 | 4.8 | 12165 | -14 | 0 | 8 | 5 | 2
Cc1cc(C)c(NC(=O)CSc2nc(=O)n(CCN3CCOCC3)c3c2CCCC3)c(C)c1 | 0.1 | / | -23 | -3 | 9 | 2 | 6
O=C(NCCCc1nc2ccccc2[nH]1)c1ccco1 | 0.5 | 5396 | -4 | -1 | 3 | 1 | 4
CCOC(=O)c1cnc2cc(-c3ccc(C(C)(C)C)cc3)nn2c1N | -3.9 | 2691 | -40 | 19 | 9 | -1 | 16
CCOc1ccccc1NS(=O)(=O)c1cn(C)nc1C | 6.6 | 5109 | -15 | 7 | 3 | 1 | -5
O=C(Cn1nc2n(c1=O)-c1ccccc1SC2)NN=Cc1ccncc1 | -3.6 | / | / | -5 | 6 | -2 | /
O=C1CCN(C(=O)c2ccccc2)C2CCCCC12 (stereo not drawn) | -0.2 | 8997 | 2 | 1 | 3 | -3 | 1
CCOc1ccc(C=NNC(=O)NC23CC4CC(CC(C4)C2)C3)cc1O | 3.9 | / | / | 13 | 5 | -17 | /
O=C(CCc1nnc2ccc(NCc3ccco3)nn12)N1CCN(c2ccc(F)cc2)CC1 | 4.4 | 4509 | -15 | 8 | 7 | -3 | -3
CCOc1ccc2[nH]c(=O)c(CN(Cc3cccs3)C(CC)c3nnnn3C(C)(C)CC)cc2c1 (stereo not drawn) | 4.0 | 3785 | -18 | / | / | -2 | 5
Nc1ccc(C(=O)Nc2cccc(N)c2)cc1 | 2.0 | 3863 | -21 | 6 | -3 | -3 | 1
O=C(CC1C(=O)NCCN1Cc1ccc(F)cc1)NCCCn1cccn1 (stereo not drawn) | 4.2 | 2165 | -7 | 8 | 5 | -4 | -4
COc1ccc2nc(SC(C)C(=O)NCC(=O)Nc3ccc(F)c(F)c3F)[nH]c2c1 (stereo not drawn) | -0.8 | 8147 | -47 | 3 | 0 | -5 | /
CCOC(=O)N1CCN(c2nc(-c3cccc(OC)c3)cc(C(F)(F)F)n2)CC1 | -7.9 | 4020 | -3 | -1 | 0 | -4 | 5
CCOC(=O)Cc1csc(NC(=O)CSc2nccn2C)n1 | 2.1 | 4625 | -1 | 0 | -7 | 8 | 1
Clc1ccccc1Nc1c2c(nc3ncnn13)CCC2 | 0.1 | 21040* | -19 | 8 | 16 | -6 | 2
COc1cc(OC)nc(NN=C(c2ccccc2)c2ccncc2)n1 | 7.0 | / | / | 13 | 0 | 0 | /
Cc1ccc(NC(=O)Cn2ccsc2=N)cc1S(=O)(=O)N(C)C | 3.3 | 5170 | -24 | 0 | 0 | -1 | 0
COC(=O)CSc1nc(C)c(C(C)=O)cc1C#N | 1.4 | 20891* | -6 | -3 | 6 | 11 | 1
c1ccc(C2(Cn3ccc4ccccc43)OCCO2)cc1 | 4.9 | 24276* | -20 | 11 | 5 | 12 | -3
Clc1ccc(OCCN2CCN(c3ncnc4sccc34)CC2)cc1 | -0.9 | 10312 | -21 | 13 | 3 | -5 | /
Cc1cc(C)n2nc(CC(=O)NC3CCCC(C)C3C)nc2n1 (stereo not drawn) | -0.1 | 8110 | -17 | -1 | 2 | -2 | 0
CCC(=O)N1CCc2cc(S(=O)(=O)N3CCCCC3CC)ccc21 (stereo not drawn) | 5.6 | 4726 | 4 | 3 | -7 | 0 | -18
COc1ccc(C(CNC(=O)C(=O)NC2CCCC2)N2CCN(C)CC2)cc1 (stereo not drawn) | 1.9 | 4902 | -1 | 3 | 10 | 10 | -1
N#Cc1ccccc1S(=O)(=O)N1CCN(C(=O)CCC2CCCC2)CC1 | -0.5 | 6502 | 2 | 9 | -1 | 11 | /
Cc1ccc(Cl)c2c1NC(=O)C2(O)CC(=O)c1ccc(Br)cc1 (stereo not drawn) | 6.5 | 4674 | 10 | / | / | -12 | -8
O=c1cc(NS(=O)(=O)c2ccccc2)nc(SCc2ccccc2Cl)[nH]1 | 0.6 | 2137 | -10 | -5 | 8 | -1 | 4
COc1ccc2oc(C(=O)OCC(=O)NC3(C#N)CCCC3)c(C)c2c1 | 6.5 | 4513 | -24 | 8 | 5 | 3 | 4
O=C(NC1CCCCC1)C1CN(S(=O)(=O)c2ccccc2)CCN1S(=O)(=O)c1ccccc1 (stereo not drawn) | 4.0 | 24405* | -29 | 0 | 5 | 4 | 6
Cc1ccc(-c2cc(C(=O)NCCCn3ccnc3)no2)cc1 | 4.5 | 2466 | -34 | 6 | 1 | 0 | 6
CCC(=O)Nc1cccc(-c2nc3ccccc3c(=O)o2)c1 | -21 | 2844 | -29 | 5 | 12 | -6 | -10
COc1cccc(NC(C)C(=O)Nc2cc([N+](=O)[O-])ccc2Cl)c1 (stereo not drawn) | -2.2 | 3289 | -16 | 6 | 3 | 0 | -2
CC(C)n1nnc2ccccc2c1=O | 6.7 | 5903 | -44 | 4 | 12 | -8 | 8
C[C@@H]1NC(=O)N(c2ccc(F)cc2)C1=O | 6.9 | 3734 | -11 | 13 | 5 | 4 | 1
CN(CCC1CCOCC1)C(=O)CC1C(=O)NCCN1Cc1ccoc1 (stereo not drawn) | 4.5 | 3195 | -18 | 6 | 9 | 5 | -7
COc1ccc(NC(=O)COc2coc(CN3CCN(c4ccccc4)CC3)cc2=O)cc1 | 2.6 | 4686 | -3 | 15 | 4 | 4 | 8
Cc1ccccc1N(CC(N)=O)S(C)(=O)=O | 0.2 | 9992 | 4 | -3 | 7 | -2 | -4
O=C(COC(=O)c1ccc(Br)cc1)NCCN1C(=O)CSC1=O | 0.9 | 4511 | 28 | 3 | 4 | 9 | 23
Cc1cc(C(=O)NCCCN2CCOCC2)n(-c2ccccc2)n1 | 5.1 | 5681 | -2 | 2 | 3 | 9 | 4
COC(=O)Cn1c(=O)c2c(nc3n2CC(C)CN3Cc2ccccc2)n(C)c1=O (stereo not drawn) | 1.0 | 6613 | -23 | 1 | -1 | 3 | -8
COc1ccc(/C=N/NC(=O)CCNc2n[nH]c(=O)[nH]c2=O)c(OC)c1 | / | 4530 | -18 | / | / | / | 2
COc1ccc(NC(=O)CCOc2cc(C)ccc2C)cc1S(=O)(=O)N1CCCCC1 | 0.1 | 3965 | -17 | 5 | 11 | -3 | /
CSCCC(NS(=O)(=O)c1ccc(C)cc1)C(=O)N1CCN(S(=O)(=O)c2ccc(F)cc2)CC1 (stereo not drawn) | 1.3 | ? | -4 | 8 | 2 | 5 | 4
O=C(c1cccs1)N(Cc1ccc(F)cc1)C1CCS(=O)(=O)C1 (stereo not drawn) | 0.9 | 6558 | -3 | -2 | 1 | 5 | 2
